High-throughput results from PubChem.
YopH PTP inh = YopH (Yersinia) phosphatase inhibition. fluorescence Ex485/Em525. inhibition, %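 (about 10 µM by stock and volumes)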. 140,000 compounds, 0.16% hits. AID 898;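 active = inhibition of 50% or more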;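 note: controls were vehicle for no effect and minimum signal wells for full effect; inactives centre near -20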
Mtb betalactam = beta-lactam sensitization of Mtb H37Rv; M. tuberculosis H37Rv growth with meropenem, percent inhibition; hits of this screen are not shown here; inhibition, % at 25 µM; 330,000 compounds, 0.27% hits; AID 434955;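 active = about 74% or more and at least 40 points above the plate without the antibiotic, then above 30% in a dose series; inconclusive = first-round hits that could not be retested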;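 note: growth measured after seven days incubation then overnight dye step; 0% = bacteria only wells and 100% = bacteria with antibiotic; twin plates without the antibiotic show which effects depend on it; some results filed as inactive read as strong as hits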
RecA intein inh = Mtb RecA intein splicing inhibition; cell-free RecA intein splicing, fluorescence; 290,000 compounds, 0.75% hits; inhibition, %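 (about 9 µM by stock and volumes)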; P9WHJ3; AID 2221; in the data active = inhibition above about 30%; inconclusive = no clear call, values can overlap the other calls;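 note: 0% = vehicle wells and 100% = reference inhibitor control wells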
Target sequence (P9WHJ3 whole entry, looked up): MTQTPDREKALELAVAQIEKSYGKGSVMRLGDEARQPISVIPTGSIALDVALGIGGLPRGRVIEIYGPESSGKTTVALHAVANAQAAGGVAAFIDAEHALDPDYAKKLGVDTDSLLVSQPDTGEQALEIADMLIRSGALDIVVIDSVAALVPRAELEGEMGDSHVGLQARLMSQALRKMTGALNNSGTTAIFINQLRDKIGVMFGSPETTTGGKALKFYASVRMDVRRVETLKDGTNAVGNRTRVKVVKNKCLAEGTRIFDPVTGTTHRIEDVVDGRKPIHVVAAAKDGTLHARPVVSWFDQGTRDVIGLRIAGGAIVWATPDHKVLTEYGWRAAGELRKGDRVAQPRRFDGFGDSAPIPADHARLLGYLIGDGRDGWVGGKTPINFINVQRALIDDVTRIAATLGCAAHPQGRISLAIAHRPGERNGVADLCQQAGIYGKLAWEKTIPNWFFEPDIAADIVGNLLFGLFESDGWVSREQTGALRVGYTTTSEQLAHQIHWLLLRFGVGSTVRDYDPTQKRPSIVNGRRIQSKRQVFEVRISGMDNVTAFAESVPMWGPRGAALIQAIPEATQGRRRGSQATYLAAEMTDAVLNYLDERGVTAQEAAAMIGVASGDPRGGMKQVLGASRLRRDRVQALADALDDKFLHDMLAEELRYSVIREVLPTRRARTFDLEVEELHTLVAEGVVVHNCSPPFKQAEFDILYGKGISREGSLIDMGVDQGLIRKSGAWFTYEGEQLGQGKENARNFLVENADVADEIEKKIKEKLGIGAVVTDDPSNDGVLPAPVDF
Mtb growth = M. tuberculosis H37Rv growth inhibitors, H37Rv strain (AID 1626); M. tuberculosis H37Rv growth inhibition; higher % means a stronger effect; one-dose inhibition, % at 10 µM; IC50 in µM for titrated hits; 220,000 compounds, 0.95% hits;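 active = confirmed in a dose series; inconclusive = inhibition above 80% but not taken into the dose series; inactive = below 80% or under 30% at every dose of the series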;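 note: bacteria incubated seven days before Alamar blue readout; 0% = bacteria only wells and 100% = bacteria with antibiotic wells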
Arbovirus inh = arbovirus infection inhibition; inhibition, % at 10 µM; 200,000 compounds, 0.37% hits; arbovirus infection cell-based antiviral screen;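 active = inhibition from about 30%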;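 note: bluetongue infection of BSR cells; cell survival read as ATP light after 72 h; 0% = infected wells without compound and 100% = uninfected wells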
Arbovirus inh repeat = second read-out of Arbovirus inh, no call of its own (marks repeat the call); inhibition, %; measured here: 10K subset replicate screen; many hits read low in the repeat;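 first of two repeat runs on a subset; 0% = infected and 100% = uninfected wells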
Active calls of the source: *; ? = inconclusive; / = no result given. Only part of the results is shown; the hit share may differ from the screen's.

SMILES	YopH PTP inh	Mtb betalactam	RecA intein inh	Mtb growth	Arbovirus inh	others
FC(F)(F)c1ccnc(NCc2ccc(Cl)cc2)n1	/	4	-0.8	/	/
O=c1cc(CSc2nnc(NC3CCCCC3)s2)nc2sccn12	/	-9	-2.2	-14%	25
CCc1ccc(NC(=O)CSc2nnc(CNC(=O)c3c(F)cccc3Cl)o2)cc1	-19	-7	-2.8	-3%	-5
CCOc1cc(C(=O)Nc2nnc(CC)s2)ccc1OCC(=O)N1CCOCC1	-40	-1	3.5	-2%	0
NS(=O)(=O)OCC(Cc1ccccc1)N1C(=O)c2ccccc2C1=O (centres undefined)	/	-7	0.7	/	/
COc1ccc(Oc2nc(-c3ccccc3)ncc2S(=O)(=O)c2ccccc2)cc1	-42	-8	-0.1	-2%	-17
CCOC(=O)c1ccc(NC(=S)NC(=O)c2nn(CC)cc2Br)cc1	-15	3	0.6	72%	-7
Cc1ccc2nc(-c3ccc(NS(=O)(=O)c4ccc(F)cc4)cc3)sc2c1	-25	7	10	2%	-39
O=C(COc1cccnc1[N+](=O)[O-])c1c[nH]c2ccccc12	/	-6	-0.5	-8%	/
Cc1ccc(C)c(NC(=O)CSc2nc3[nH]ncc3c(=O)[nH]2)c1	-30	-2	-0.8	-3%	4
NS(=O)(=O)c1ccc(NC(=O)c2c(Cl)cccc2Cl)cc1	/	-2	3.3	3%	6
C/C(=C\C=C(C#N)C#N)c1cc(C#N)c(N)o1	/	/	-1.4	4%	5
O=C(NCCSc1ccccc1)c1ccc(CN2CCOCC2)cc1	/	0	-3.7	8%	/
CN1CCO/C1=C(\C(Cl)=C(Cl)Cl)[N+](=O)[O-]	/	4	0.9	-2%	-4
COc1ccccc1C(=O)NCC(=O)OCC(=O)c1ccc2c(c1)-c1ccccc1C2	-21	-2	-2.9	4%	-17
O=C(NCCc1nnc2ccccn12)c1cccs1	/	1	0.1	/	/
COC(=O)Cc1c(OC)ccn(CCc2c[nH]c3ccccc23)c1=O	/	2	0.4	7%	8
Cc1ccc(C2Nc3ccc4ccccc4c3C3=C2C(=O)CC(C)(C)C3)o1 (centres undefined)	-2	-5	-0.6	7%	-20
O=C(COc1ccccc1)N(Cc1cccs1)C1CCS(=O)(=O)C1 (centres undefined)	/	-3	0.5	3%	/
COc1ccc(OCC(=O)Nc2nc3ccccc3[nH]2)cc1	0	13	-1.6	-14%	15
Cc1cc(NC(=O)CSc2nc3ccccc3n2CC(=O)N2CC(C)CC(C)C2)no1 (centres undefined)	-23	-2	0.3	-5%	-7
CC(C(=O)NCc1cccnc1)c1ccc([N+](=O)[O-])cc1 (centres undefined)	/	-3	-0.1	/	/
CC(=O)Nc1ccc(C(=O)Nc2ccc(S(=O)(=O)N3CCCCC3)cc2)cc1	/	-12	-2.6	/	/
CC(/C=N/n1c(-c2ccncc2)n[nH]c1=S)=C\c1ccco1	/	-2	1.4	-10%	/
O/N=C(/c1ccc(F)cc1)C1CC1c1c(F)cccc1Cl (centres undefined)	/	-4	18	/	/
Cc1cc(OCc2nnc(SC(C)C(=O)O)n2-c2ccccc2)ccc1Cl (centres undefined)	/	2	6.5	/	/
CC1=CC(=O)C=C(C)C1=NOC(=O)/C=C\c1ccccc1	-15	2	/	2%	2
CSc1nc(C)cc(OCC(=O)n2nc(C)cc2C)n1	-50	-2	-0.1	-1%	1
COc1ccc(N(CC(=O)NCCC2=CCCCC2)S(=O)(=O)c2c(C)[nH]c(=O)[nH]c2=O)cc1	/	0	5.2	7%	/
CCCCOc1ccc(Cl)cc1CSc1nnc(C)n1N	-43	-7	2.3	-1%	5
CCn1cc(CCC(=O)NCc2ccccc2OC)c2ccccc21	/	3	4.2	/	/
COc1ccc(C2NCCc3c2[nH]c2ccccc32)cc1COc1ccc(F)cc1 (centres undefined)	-5	100	11	3.1µM*	-36
CC1CCCC(C)N1C(=O)CCN1C(=O)C2C3C=CC(C3)C2C1=O (centres undefined)	/	-3	0.0	/	/
CCN(CC)S(=O)(=O)c1ccc(/C=C/C(=O)OCC#N)cc1	/	84	1.9	60%	10
O=C(N/C(=C/c1cccnc1)C(=O)N1CCOCC1)c1ccccc1	2	5	0.7	-7%	8
O=C(/C=C/c1cccs1)N1CCCC1	/	4	-2.8	/	/
Cc1sc2nc(C3CC3)nc(SCC(=O)N3CCCc4ccccc43)c2c1C	-5	13	14	14%	-18
Cc1csc(NC(=S)Nc2cccc(Cl)c2)n1	-20	100	-1.4	?	-37
C#CCOC(=O)/C(=C/C=C/c1ccccc1)NC(=O)c1ccccc1	-41	98	3.1	11%	3
O=C(Nc1ncc(Cl)cc1Cl)c1c(F)cccc1Cl	/	0	-2.6	3%	-1
CC(C)(C)c1ccc(/C=C2\Oc3cc(O)ccc3C2=O)cc1	/	8	-12	/	/
CCN1CCN(C(=O)c2ccc(CS(=O)Cc3ccc(C)cc3)o2)CC1 (centres undefined)	/	3	0.2	/	/
CCCS(=O)(=O)N1CCCC(C(=O)Oc2ccc(OC)cc2)C1 (centres undefined)	/	-1	0.1	/	/
COC(=O)C1=C(C)NC2=C(C(=O)CCC2)C1c1cn(Cc2ccc(Br)cc2)nc1-c1ccccc1 (centres undefined)	-10	5	-80	15%	-19
COc1cc(Br)c(Br)cc1N	/	80	-1.0	3%	/
O=C(CSc1n[nH]c(=O)n1C1CC1)NCc1ccccc1	/	-8	2.8	15%	/
CCc1cccc(NC(=O)C2CCCN2S(=O)(=O)c2cccc3cccnc23)c1 (centres undefined)	/	-4	3.2	/	/
Cc1ccc(NC(=O)C(Cc2ccccc2)NC(=O)OCc2ccccc2)cc1C (centres undefined)	-20	6	-1.9	7%	-9

Overlap with the part before: five compounds; new compounds follow.
SMILES	YopH PTP inh	Mtb betalactam	RecA intein inh	Mtb growth	Arbovirus inh	others
COC(=O)C1=C(C)NC2=C(C(=O)CCC2)C1c1cn(Cc2ccc(Br)cc2)nc1-c1ccccc1 (centres undefined)	-10	5	-80	15%	-19
COc1cc(Br)c(Br)cc1N	/	80	-1.0	3%	/
O=C(CSc1n[nH]c(=O)n1C1CC1)NCc1ccccc1	/	-8	2.8	15%	/
CCc1cccc(NC(=O)C2CCCN2S(=O)(=O)c2cccc3cccnc23)c1 (centres undefined)	/	-4	3.2	/	/
Cc1ccc(NC(=O)C(Cc2ccccc2)NC(=O)OCc2ccccc2)cc1C (centres undefined)	-20	6	-1.9	7%	-9
O=C(c1cnccn1)N1CCN(c2ccccc2F)CC1	-24	-4	3.7	-6%	-1
O=C(Nc1nnc(Cc2ccccc2F)s1)Nc1ccccc1F	/	4	-0.7	/	/
Cc1ccc(-c2nc(CS(=O)CC(=O)NC3CCC(C)CC3)c(C)o2)cc1 (centres undefined)	/	0	16	-5%	-1	Arbovirus inh repeat=-1
O=C(Cc1ccccc1[N+](=O)[O-])OCc1cccc([N+](=O)[O-])c1	/	-7	-1.0	/	/
CC12CC3CC(C)(C1)CC(C(=O)Nc1nn[nH]n1)(C3)C2	-48	3	-0.2	2%	9
COc1ccc(OC)c(S(=O)(=O)NCCO)c1	-23	2	-3.9	3%	3
C=C(C)COc1ccc2oc(C)c(C(=O)OCCOC)c2c1	-43	11	3.1	-5%	-2
COC(=O)c1sccc1NC(=O)CSc1nnnn1-c1ccccc1F	-19	-4	-0.1	-4%	8
O=C(O)c1csc(Cc2ccccc2)n1	/	-5	-0.2	1%	-3
CC(=O)Nc1ccc(CC#N)cc1	/	5	0.6	-3%	/
CCc1ccc(NC(=O)CSc2nc3ccsc3c(=O)n2CCC(=O)O)cc1	/	-3	-7.0	/	/
O=c1c2cc(F)ccc2[nH]c(=S)n1Cc1ccc(F)cc1	/	11	2.0	/	/
Cc1ccc2nc(C)c3c(c2c1)N(c1ccccc1)CC3	/	-9	-7.0	5%	/
O=C(Nc1cccc2cccnc12)c1cccnc1	-6	-9	2.0	2%	0
O=C(Nc1cccc2c1CCCC2)c1ccccc1Cl	/	-1	-1.4	/	/
Cc1ccc(N=Nc2c(C)[nH]n(C(N)=S)c2=O)cc1C	-12	96	6.6	?	-16
O=S(=O)(Nc1ccc(O)c(Sc2nc3ccccc3s2)c1)c1ccc(Cl)cc1	-32	1	9.4	/	24
CCN1CCCC1CN(Cc1cc2ccc(C)cc2[nH]c1=O)C(=S)Nc1cccc(OC)c1 (centres undefined)	-14	-3	1.5	11%	-32
CC[N+](CC)(CC)C/C(N)=N/O	-27	16	0.7	-4%	2
COc1ccc(Cc2nc(-c3cccs3)no2)cc1OC	-55	2	3.3	6%	2	Arbovirus inh repeat=6
O=C(CC1S/C(=N\S(=O)(=O)c2ccc(F)cc2)N(c2ccccc2)C1=O)Nc1ccccc1 (centres undefined)	-24	2	-1.5	0%	6
COC(CNC(=O)C(C)n1nc(C)c2ccccc21)OC (centres undefined)	/	0	-3.4	2%	9
Oc1c(Cl)cc(Cl)cc1C(C#Cc1ccccc1)N1CCOCC1 (centres undefined)	-3	9	7.8	5%	-29
CC(=O)OCC1OC(n2ccc(=O)[nH]c2=O)C(O)C1O (centres undefined)	-12	-12	-1.3	-3%	1

Part of the list above in order of heavy-atom count, descending.
SMILES	YopH PTP inh	Mtb betalactam	RecA intein inh	Mtb growth	Arbovirus inh	others
O=C(CC1S/C(=N\S(=O)(=O)c2ccc(F)cc2)N(c2ccccc2)C1=O)Nc1ccccc1 (centres undefined)	-24	2	-1.5	0%	6
O=S(=O)(Nc1ccc(O)c(Sc2nc3ccccc3s2)c1)c1ccc(Cl)cc1	-32	1	9.4	/	24
Oc1c(Cl)cc(Cl)cc1C(C#Cc1ccccc1)N1CCOCC1 (centres undefined)	-3	9	7.8	5%	-29
Cc1ccc2nc(C)c3c(c2c1)N(c1ccccc1)CC3	/	-9	-7.0	5%	/
O=C(Nc1cccc2cccnc12)c1cccnc1	-6	-9	2.0	2%	0
CC[N+](CC)(CC)C/C(N)=N/O	-27	16	0.7	-4%	2

The listing continues.
SMILES	YopH PTP inh	Mtb betalactam	RecA intein inh	Mtb growth	Arbovirus inh	others
COc1ccc(CCN2C(=O)CCC2(C)C(=O)NC2CCCC2)cc1OC (centres undefined)	/	4	-0.9	2%	-2
CN(Cc1ccccc1)C(=O)c1cnc2n(c1=O)CCS2	-30	-10	-0.1	-8%	-5
CC(C)NC(=O)Nc1cccc(Cl)c1	/	0	0.4	-4%	/
Cc1ccc(-n2nc3c(c2NC(=O)c2cccs2)CS(=O)(=O)C3)cc1	/	6	-2.4	/	/
COc1ccc(NC(=O)c2ocnc2C)cc1OC	-16	-14	5.9	-1%	-1
O=C(CSc1nc2ccccc2nc1N1CCCC1)Nc1ccc(Cl)cc1	/	-2	-2.1	/	/
CC(=O)Nc1ccc(S(=O)(=O)Nc2ccc(Cl)nn2)cc1	-26	-2	-6.3	-1%	5
O=C(N/N=C1\C(=O)c2cccc3cccc1c23)c1ccc(O)cc1	/	-4	10	21%	-6
COc1cccc(CSc2ccc(S(=O)(=O)N3CCOCC3)cc2C(=O)NCC2CCCO2)c1OC (centres undefined)	/	0	-1.0	5%	-1
CCOc1cccc(CN2CCC(CCC(=O)NC3CC3)CC2)c1O	/	1	-6.6	/	/
Cc1ccc(C2CC(c3cccs3)=NN2S(=O)(=O)c2ccc(C)cc2)cc1 (centres undefined)	-24	-7	6.1	0%	1
O=C(CSc1ccc(-c2ccccn2)nn1)c1ccccc1	/	98	-6.1	?	-33

Reprinted at random: 3 compounds from above, in no set order.
SMILES	YopH PTP inh	Mtb betalactam	RecA intein inh	Mtb growth	Arbovirus inh	others
CCc1cccc(NC(=O)C2CCCN2S(=O)(=O)c2cccc3cccnc23)c1 (centres undefined)	/	-4	3.2	/	/
O=C(Cc1ccccc1[N+](=O)[O-])OCc1cccc([N+](=O)[O-])c1	/	-7	-1.0	/	/
CC(C)(C)c1ccc(/C=C2\Oc3cc(O)ccc3C2=O)cc1	/	8	-12	/	/

Additional results
SMILES	YopH PTP inh	Mtb betalactam	RecA intein inh	Mtb growth	Arbovirus inh	others
CCCCCC(=O)N/N=C/c1ccc([N+](=O)[O-])o1	-19	100	/	?	-23
CCCC12CN3CCN(CC(C3)/C1=N\NC(=O)c1ccncc1)C2	/	97	-2.3	?	3
CCS(=O)(=O)Nc1ccc(Cc2ccc(NS(=O)(=O)CC)cc2)cc1	6	-13	-0.8	-5%	3
C1CC2CN(c3nc4nonc4nc3N3CCSCC3)CCN2C1 (centres undefined)	/	-11	1.2	2%	6
CC1CCCN(S(=O)(=O)c2ccc(NC(=O)C3CCN(C(=O)c4ccco4)CC3)cc2)C1 (centres undefined)	/	4	-1.5	/	/
COc1ccc(NC(=O)c2ccc(COCC(F)(F)C(F)F)cc2)cc1OC	-29	55	-1.2	72%	-8
COc1cc2c(cc1OC)C(SC)=NC(C)(C)C2	-5	12	13	-1%	-10
